# Assay outcomes as filed in PubChem.
# Sfp inh – qHTS Assay for Inhibitors of Bacillus subtilis Sfp phosphopantetheinyl transferase (PPTase); 4'-phosphopantetheinyl transferase ffp (Bacillus subtilis), Q9F4F7; Potency, µM, for the others: max response, negative = inhibition, actives largely listed as inhibitors; Biochemical Sfp PPTase activity, qHTS; hit rate 3.5% among 310,000; active means well fitted inhibition curve with a large enough effect; inconclusive means small, poorly fitted or top-dose-only effect, or another doubt; inactive means no such curve, though single readings can be large or run the other way;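 further: the enzyme is Sfp with the accession as filed and its product quenches rhodamine fluorescence; potency means the concentration at half of the fitted maximal effect; 0% = enzyme reaction without inhibitor and -100% = no enzyme wells; top concentration of the series not given in the record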
#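 With Hepes-Na pH 7.6 buffer containing 10 mM MgCl2, Sfp (15 nM) modified BHQ-2-YbbR (12.5 uM) using rhodamine-CoA (5 uM). Two reads 30 minutes apart at 525/598 nm yielded each well's rate.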
# gsp antagonist – qHTS for Antagonists of gsp, the Etiologic Mutation Responsible for Fibrous Dysplasia/McCune-Albright Syndrome: qHTS; AID 624288, 2012; hit rate 0.4% among 340,000; Potency, µM (titrated, usually from 76.9 µM), for the others: top-dose activity change, negative = inhibition, most hits filed as inhibitors; gsp-mutant cells, cAMP HTRF, 30 min; control for the full effect not named in the record; active = falling curve of any shape with a large fitted effect; inconclusive = falling curve, mostly with a smaller effect; inactive = flat or rising curve; cell line not stated here;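 further: intracellular cAMP measured with PDE inhibitor Ro 20-1724 present during compound exposure; potency means the concentration at half of the fitted maximal effect; on the % scale 0 is the no-effect control and ±100 the full control effect; nearly all actives have a fitted effect of over 65% in size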
#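 HTRF cAMP measurement after 30 min RT detection following 30 min, 37C compound treatment alongside […] (added as 300 uM solution) in G418-selected cells seeded at 2000/well and grown 16–24 h.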
# TRPV1 PAM – HTS Assay for Compounds that Act as Potentiators of the Vanilloid Receptor 1; potentiation, % at 8.33 µM; TRPV1-expressing cells, Fluo-8 calcium influx, capsaicin EC20 potentiation; host cell line not named in the record; control for the full effect not named in the record; hit rate 0.02% among 320,000; active means potentiation above 80%; inconclusive means 30% to 80%; inactive means below 30%; further: 0% is about no effect
# Target sequence (Q8NER1 whole entry, looked up): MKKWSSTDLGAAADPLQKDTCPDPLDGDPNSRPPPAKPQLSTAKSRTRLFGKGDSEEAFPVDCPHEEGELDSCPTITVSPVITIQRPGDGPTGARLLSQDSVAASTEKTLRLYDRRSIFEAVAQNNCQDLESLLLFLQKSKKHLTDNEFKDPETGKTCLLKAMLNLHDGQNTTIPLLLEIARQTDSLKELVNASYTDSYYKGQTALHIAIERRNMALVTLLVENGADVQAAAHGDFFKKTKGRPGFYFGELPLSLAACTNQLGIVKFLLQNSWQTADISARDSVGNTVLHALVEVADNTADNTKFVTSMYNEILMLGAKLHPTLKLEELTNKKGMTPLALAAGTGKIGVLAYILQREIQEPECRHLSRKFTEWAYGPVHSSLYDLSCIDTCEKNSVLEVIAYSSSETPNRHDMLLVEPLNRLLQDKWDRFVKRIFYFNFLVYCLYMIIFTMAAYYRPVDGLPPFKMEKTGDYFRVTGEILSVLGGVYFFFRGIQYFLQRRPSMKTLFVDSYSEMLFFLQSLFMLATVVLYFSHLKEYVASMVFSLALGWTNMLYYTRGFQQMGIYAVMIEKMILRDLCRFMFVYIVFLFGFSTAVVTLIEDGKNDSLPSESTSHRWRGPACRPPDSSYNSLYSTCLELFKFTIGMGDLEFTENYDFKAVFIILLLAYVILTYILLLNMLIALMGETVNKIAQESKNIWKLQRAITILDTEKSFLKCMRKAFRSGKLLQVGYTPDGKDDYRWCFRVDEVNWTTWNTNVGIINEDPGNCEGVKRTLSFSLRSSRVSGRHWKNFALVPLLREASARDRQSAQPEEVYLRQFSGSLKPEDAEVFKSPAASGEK
#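 TRPV1-expressing cells were cultured overnight at 35.5C and loaded with Fluo-8 calcium dye for 40 to 90 min at room temperature. After a 10 s baseline, compound was added and calcium influx was read kinetically for 3 min (ex 480/em 520 nm).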
# gsp agonist – qHTS for Agonist of gsp, the Etiologic Mutation Responsible for Fibrous Dysplasia/McCune-Albright Syndrome: qHTS; hit rate 0.13% among 340,000; gsp mutant cells, cAMP HTRF, 30 min; control for the full effect not named in the record; Potency, µM (series often up to 76.9 µM), inactives show at the highest dose activation (cAMP increase), most hits filed as activators; active = well fitted activation curve with a large enough effect; inconclusive = small, poorly fitted or top-dose-only effect, or another doubt; inactive = no such curve, though single readings can be large or run the other way; cell line not stated here;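 further: phosphodiesterase inhibitor Ro 20-1724 added with compounds to block cAMP breakdown; potency means the concentration at half of the fitted maximal effect; nearly all actives have a fitted effect of over 60% in size; about a fifth of the inactives were tested at one dose only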
#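 Cells stably selected in G418 were plated at 2000/well, grown 16-24 hr, then given compounds in DMSO with the PDE inhibitor […] (300 uM solution added) for 30 min at 37C; cAMP was read by HTRF.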
# CtBP-E1A blk – qHTS Assay for Inhibitors of the CtBP/E1A Interaction. hit rate 0.49% among 340,000. AID 651724, 2012. AlphaScreen GST-E1A/His-CtBP binding, 1536-well; hits give low values; control for the full effect not named in the record. activity change, % (no concentration beside the values). CtBP / adenovirus E1A interaction (AlphaScreen); in the data active means activity change below about -65%; inconclusive means about -30% to -65%; inactive means above about -30%; further: on the % scale 0 is the no-effect control and ±100 the full control effect; compound concentration not given in the record
#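 GST-E1A and His-tagged CtBP (125 nM each as 5X stock) were preincubated with pin-transferred compound for 2 h at 37 °C in the dark, then glutathione donor and nickel acceptor beads were added for 1 h before AlphaScreen reading.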
# Menin MLL FP FL – qHTS Assay for Inhibitors Targeting the Menin-MLL Interaction in MLL Related Leukemias: Competition With Fluorescein Labeled MLL-derived Peptide | Fluorescence polarization, fluorescein-MLL peptide displacement from menin | FP activity change, % at 61.4 µM | 290,000 tested, under 10 active | AID 1766, 2009; inconclusive = falling polarisation curve, or a change in total fluorescence; inactive = total fluorescence flat and polarisation flat or rising; no compound was filed as active; the % refers to the polarisation; negative = inhibition;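 further: % of control where 0% means no effect; inhibitors lower the polarisation; unlabelled MLL peptide was the positive control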
# ClpP mod – qHTS Assay for Activators of ClpP | ATP-dependent Clp protease proteolytic subunit (Bacillus subtilis (strain 168)), P80244 | Potency, µM (series often up to 57.5 µM), for inactives: at the highest dose activity change, negative = active | hit rate 1.9% among 340,000 | purified B. subtilis ClpP, FRET peptide cleavage, 20 min; active = well fitted falling curve with a large enough effect; inconclusive = small, poorly fitted or top-dose-only effect; inactive = no such curve, though single readings can be large or run the other way; further: potency means the concentration at half of the fitted maximal effect; the source files actives as falling curves though it sought activators and does not explain the sign; nearly all actives have a fitted effect of over 65% in size; many hits overshoot -100%
# Target sequence (P80244 whole entry, looked up): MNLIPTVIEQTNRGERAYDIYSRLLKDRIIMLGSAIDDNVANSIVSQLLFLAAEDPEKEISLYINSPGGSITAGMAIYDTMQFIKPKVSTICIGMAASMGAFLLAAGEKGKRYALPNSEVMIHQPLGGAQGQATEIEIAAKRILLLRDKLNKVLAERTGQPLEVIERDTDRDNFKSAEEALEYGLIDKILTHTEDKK
#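 Purified B. subtilis ClpP, 10 microg/mL final in Tris/HCl pH8 with KCl, BSA, glycerol and Tween-20, cleaved an Abz/nitrotyrosine-quenched decapeptide. Fluorescence (ex 320, em 430) was read at 0 and 20 min at room temperature. Delta was normalized to 5.8 microM ADEP and DMSO/no-enzyme controls.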
# Numbers without * were called inactive; ? = inconclusive; nt = not tested or not shown; & = joins results of further samples; [ ] = remark or other dose.
SMILES,Sfp inh,gsp antagonist,TRPV1 PAM,gsp agonist,CtBP-E1A blk,Menin MLL FP FL,ClpP mod
CCc1cc(=O)oc2cc(C)cc(OCC(=O)NCc3cccnc3)c12,6%,5%,1,17%,nt,nt,4.3%
CCOC(=O)C1=C(O)/C(=C\c2cccc(OC)c2)N=C1C,1%,-12%,nt,?,-1,-0.5,-0.7%
CCn1c(SCC(=O)NC2CCCCC2)nnc1-c1ccccc1F,-7%,-1%,3,3%[15.4 µM],3,1.6,nt
COc1ccc(NC(=O)CN(C)C(=O)CC2CCCC2)cc1,nt,12%,7,-12%[15.4 µM],-21,nt,nt
CC(=O)Cc1nsc(NC(=O)c2ccc(-c3ccc(Cl)cc3Cl)o2)n1,7%,?,5,6%,5,-2.8,-7.0%
O=C(CSc1nnc(CCc2nc3ccccc3[nH]2)n1-c1ccccc1)NCc1ccco1,6%,6%,8,4%,-1,-0.3,0.0%
COc1cc(S(=O)(=O)NCc2ccc(F)cc2)ccc1-n1cnnn1,14%,-36%,-5,19%[15.4 µM],8,nt,nt
COc1ccc(C(C)NC(=O)c2ccccc2)cc1 (configuration not stated),0%,5%,-1,7%,-7,-1.7,-0.9%
COc1ccc(OC)c(NC(=O)COc2coc(CN3CCc4ccccc43)cc2=O)c1,nt,-20%,4,2%,1,nt,1.8%
C=CCN1C(=O)C2C(C(=O)NC3CCCC3)C3C=CC2(O3)C1C(=O)NC1CCCC1 (configuration not stated),21%,6%,-1,-6%,2,4.5,nt
CC(=O)Nc1cccc(C(=O)NN2C(=O)NC3(CCC(C)CC3)C2=O)c1 (configuration not stated),nt,nt,nt,52%,-8,nt,-1.7%
Cc1ccc(S(=O)(=O)N(C)c2ccc(C(=O)Nc3cccc(C)n3)cc2)cc1,13%,35µM*,15,9%[15.4 µM],3,nt,-0.9%
Cc1ccc(NC(=O)CCSc2ccccc2)c(C)c1,22%,nt,3,nt,nt,-9.8,nt
CC1CCN(c2ccc3c(c2)S(=O)(=O)c2cccc(C(=O)NC4CC4)c2C3=O)CC1,nt,-12%,nt,0%,5,nt,0.3%
CN1CCN(c2ccc(NC(=O)c3cc(S(N)(=O)=O)ccc3N3CCOCC3)cc2)CC1,nt,-4%,-2,22%,nt,nt,-1.4%
COc1ccc(C(=O)CSc2nc(=O)n(Cc3cccnc3)c3c2CCC3)cc1,nt,-4%,nt,3%,-12,nt,?
CCN(CC(=O)NC1CCS(=O)(=O)C1)Cc1nc2c(Br)cc(Br)cc2c(=O)[nH]1 (configuration not stated),2%,nt,-5,21%[15.4 µM],0,2.4,nt
CCOC(=O)C1(CC2CCCCO2)CCN(Cc2nc(-c3cccs3)oc2C)CC1 (configuration not stated),12%,2%,-5,-54%[inhibitor],-6,-3.3,-18%
Cc1cccc(NS(=O)(=O)c2cc3c(cc2C)n(C)c(=O)c(=O)n3C)c1,7%,-6%,29,-10%,-1,8.0,-1.7%
COc1ccc(CSc2nc3ccccc3c(=O)[nH]2)cc1F,11%,-3%,11,-36%[inhibitor],nt,-0.7,2.8%
CCN(C(=O)CN1C(=O)/C(=C/c2ccc(F)cc2)SC1=S)C1CCS(=O)(=O)C1 (configuration not stated),-1%,-5%,4,-5%,-9,nt,-0.4%
COc1ccc2ccc(O)c(CN(C)CC(=O)Nc3ccccc3C(F)(F)F)c2c1,-9%,-3%,13,-4%,-2,1.3,nt
CC(C)C[C@H](NC(=O)C1CCC(CNC(=O)[C@@H]2CCCN2C(=O)OC(C)(C)C)CC1)C(=O)O (some centres not stated),4%,8%,-2,2%,1,5.4,nt
O=C(O)C1CC=CCC1C(=O)c1ccccc1 (configuration not stated),14%,1%,1,?,47,1.0,1.8%
CC(C)(C)c1cc(CP(=O)(c2ccccc2)c2ccccc2)cc(C(C)(C)C)c1O,0%,?,23,3%,nt,3.4,1.9%
FC(F)Oc1cccc2cccnc12,4%,2%,-1,-18%,-17,5.4,-18%
COCC1CCCN(C(=O)c2ccc3nc(Cc4cccc(Cl)c4)oc3c2)C1 (configuration not stated),-1%,-6%,-16,-56%[inhibitor],7,nt,1.6%
CC(C)(C)CN1CCNC(=O)C1CC(=O)NCCc1ccccc1C(F)(F)F (configuration not stated),-5%,5%,3,7%,-2,-2.2,-14%
Clc1cccc(OCCN2CCCC2)c1,12%,6%,21,1%[15.4 µM],-3,0.3,-1.9%
CC(=O)c1cccc(N(CC(=O)NC2CCCC2)C(=O)c2csnn2)c1,-5%,11%,-14,3%,3,4.5,nt
CC(C)c1ccc(C2NC(=S)NC3=C2C(=O)CCC3)cc1 (configuration not stated),18%,-1%,-5,-44%[inhibitor],13,-0.1,1.0%
COC(=O)C1N[C@@H]([C@@H](NC(=O)COc2ccccc2)C(=O)NCc2ccsc2)SC1(C)C (some centres not stated),nt,5%,nt,30%,-24,nt,-2.3%&2.5%
CCOC(=O)/C(C#N)=N/Nc1c(S(=O)(=O)Cc2ccco2)csc1C(=O)OC,0%,-5%,-5,-32%,nt,2.5,1.6%
CCC(=O)N1CCc2cc(S(=O)(=O)NCCC(=O)N3CCc4ccccc4C3)ccc21,9%,?,10,18%,1,5.5,-1.2%
CCOC(=O)C1=C(c2ccccc2)NC(SCC)=C(C#N)C1c1cccnc1 (configuration not stated),-4%,-21%,8,-2%,-2,-0.2,1.5%
COc1ccc(CCNC(=O)C2CCCN(S(=O)(=O)c3ccc(OC)cc3)C2)cc1 (configuration not stated),11%,-1%,4,15%[15.4 µM],5,-0.8,nt
O=C(c1cccc([N+](=O)[O-])c1)c1ccccn1,0%,7%,-10,-3%,nt,1.1,1.0%
CCOC(=O)[C@H]1[C@H]2COc3ccc(OC)cc3[C@@H]2N2C(=O)CN(Cc3ccc(C)cc3)C(=O)[C@@]12C,nt,-5%,-5,-36%[inhibitor],2,nt,2.2%
O=C(N=C1SCC(=O)N1c1ccccc1)c1ccco1,9%,-9%,-4,-14%,-1,1.7,1.3%
CN(C)CCNC(=O)/C(=C/c1cccc([N+](=O)[O-])c1)NC(=O)c1ccccc1,-3%,16%,-3,-8%,3,3.6,-0.7%
C=CCn1c(SCC(=O)Nc2cc(C)on2)nnc1C1COc2ccccc2O1 (configuration not stated),-16%,-10%,2,?,8,5.3,nt
O=C(O)c1cc(-c2ccccc2)nn1CC1CC(c2cccnc2)=NO1 (configuration not stated),nt,10%,nt,nt,0,nt,0.1%
C=CCc1cccc(/C=N/NC(=O)c2ccccc2OC)c1O,11%,-23%,-11,2%,-2,4.3,5.8%
COc1cccc(NC(=O)NC2(C(=O)N3CCC(O)CC3)CCCCC2)c1,0%,7%,-4,-14%,5,0.0,nt
CC(C)[C@H]1COCCS(=O)(=O)N1Cc1ccccc1-c1ccc(C(C)(C)C)cc1,nt,6%,nt,nt,24,nt,0.4%
Cc1ccc2[nH]c(SCC(=O)N3CCOCC3)nc2c1C,16%,-2%,5,1%,-1,4.6,-1.1%
CC(=O)COc1ccc2c(C)c(-c3ccccc3)c(=O)oc2c1,21%,6%,2,0%[15.4 µM],-1,2.0,nt
COc1ccccc1NS(=O)(=O)c1ccc(O)c(C(=O)OCC(=O)N2CCc3ccccc32)c1,5%,-16%,5,13%[15.4 µM],-7,-2.3,nt
COc1ccccc1NC(=O)C1=C(C)Nc2nc3ccccc3n2C1c1cccs1 (configuration not stated),-3%,25%,-8,-5%[15.4 µM],-1,1.9,?
CCOC(=O)C1Nc2ccc(Br)cc2C2C=CCC12 (configuration not stated),28µM*,-15%,?,12%,-6,9.9,nt
CCCn1c(SCC(=O)Nc2nnc(CC)s2)nc2c1c(=O)n(C)c(=O)n2C,17%,nt,4,nt,nt,1.6,nt
Cc1ccc(NC(=O)COc2ccc(C3SCCS3)cc2)cc1,17%,2%,-5,18%,4,-0.1,-0.8%
COc1ccc(/C=N/NC(=O)C(O)(c2ccccc2)c2ccccc2)cc1OC,8%,22%,12,19%,13,2.3,-14%
CCOC(=O)c1sc(NC(=O)C2CC(=O)N(c3ccccc3OC)C2)nc1C (configuration not stated),nt,4%,-3,-3%,-8,nt,-2.3%
COc1ccccc1/C=C/C(=O)Nc1cccnc1Cl,5%,11%,-13,4%,6,0.3,-17%
C=CCc1c(C)nc(SCCC)[nH]c1=O,-10%,11%,5,-18%,-2,-1.1,-0.5%
CCc1ccc(-c2cc(C)no2)cc1S(=O)(=O)N1CCC(C)CC1,-8%,-14%,-13,-2%,16,-3.5,-0.3%
CCC1CCCCN1CCCNC(=O)CNC(=O)c1nn(-c2ccc(OC)cc2)c(=O)c2ccccc12 (configuration not stated),16%,-22%,12,2%[15.4 µM],-15,-0.5,nt
Cc1nc(SCC(=O)NCc2ccccc2)c2c(=O)n(C)c(=O)n(C)c2n1,-2%,3%,9,-38%,-3,6.9,-0.8%
COc1ccccc1NC(=O)c1cc(S(=O)(=O)NCc2ccccc2)ccc1F,11%,2%,7,-39%[inhibitor],-3,5.7,-2.3%
CO[C@@H]1[C@@H](OC2OC(C)C(OC3CC(C)(O)C(OC(=O)CC(C)C)C(C)O3)C(N(C)C)C2O)[C@@H](CC=O)C[C@@H](C)C(=O)/C=C\C2O[C@H]2C[C@@H](C)OC(=O)C[C@H]1OC(C)=O (some centres not stated),6%,nt,nt,nt,nt,-4.1,-3.7%

# Full records, quoted from the list.
# COc1cccc(NC(=O)NC2(C(=O)N3CCC(O)CC3)CCCCC2)c1 in the list: Sfp inh = 0%; gsp antagonist = 7%; TRPV1 PAM = -4; gsp agonist = -14%; CtBP-E1A blk = 5; Menin MLL FP FL = 0.0; ClpP mod = nt
# Cc1ccc(S(=O)(=O)N(C)c2ccc(C(=O)Nc3cccc(C)n3)cc2)cc1 in the list: Sfp inh = 13%; gsp antagonist = 35µM*; TRPV1 PAM = 15; gsp agonist = 9%[15.4 µM]; CtBP-E1A blk = 3; Menin MLL FP FL = nt; ClpP mod = -0.9%
